From PubChem
KCNQ2 block = KCNQ2 potassium channel inhibitors, primary screen, cell-based, CHO-K1, FluxOR thallium flux, B-score (AID 2156). Potassium voltage-gated channel subfamily KQT member 2 (Rattus norvegicus), O88943. 20 min; active compounds read low; only compounds with negative scores are shown here; some inactives read as strong as hits. B-score at 10 µM. 1.1% of 310,000 active;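 active means fluorescence ratio B-score at most minus 3 library SDs, with starting brightness B-score within 2 library SDs, cut at about -5.5 in these data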
Target sequence (O88943 whole entry, looked up): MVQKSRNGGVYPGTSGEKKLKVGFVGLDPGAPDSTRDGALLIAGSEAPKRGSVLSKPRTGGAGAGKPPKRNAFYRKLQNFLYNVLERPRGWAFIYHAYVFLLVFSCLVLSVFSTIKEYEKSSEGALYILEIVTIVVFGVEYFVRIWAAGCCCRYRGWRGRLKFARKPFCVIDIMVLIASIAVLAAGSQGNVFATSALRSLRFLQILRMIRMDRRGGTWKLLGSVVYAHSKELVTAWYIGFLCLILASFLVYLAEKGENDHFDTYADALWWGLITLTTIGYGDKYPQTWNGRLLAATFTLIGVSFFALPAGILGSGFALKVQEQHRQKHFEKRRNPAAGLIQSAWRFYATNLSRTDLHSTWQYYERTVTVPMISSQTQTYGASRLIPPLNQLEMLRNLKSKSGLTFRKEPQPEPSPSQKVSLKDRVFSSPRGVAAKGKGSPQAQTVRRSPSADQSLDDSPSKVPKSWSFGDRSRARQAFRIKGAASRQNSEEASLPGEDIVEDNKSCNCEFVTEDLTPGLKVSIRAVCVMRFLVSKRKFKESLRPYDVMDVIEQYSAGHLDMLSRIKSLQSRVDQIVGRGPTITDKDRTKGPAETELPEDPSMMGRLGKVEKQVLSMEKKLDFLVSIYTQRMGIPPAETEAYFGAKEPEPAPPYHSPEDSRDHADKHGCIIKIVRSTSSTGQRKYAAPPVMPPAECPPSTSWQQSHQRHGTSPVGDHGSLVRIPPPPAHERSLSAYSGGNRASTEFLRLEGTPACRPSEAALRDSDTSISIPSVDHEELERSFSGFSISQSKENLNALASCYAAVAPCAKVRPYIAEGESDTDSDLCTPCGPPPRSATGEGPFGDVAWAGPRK
KCNQ2 block baseline = also measured in KCNQ2 block; calls as there; B-score; measured here: initial fluorescence intensity artifact check;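 brightness before thallium and not channel activity; 0 = typical well and far values either way flag optical interference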
Active calls of the source: *; i = inactive. The list is partial (hit frequency here may not be typical).

Below each SMILES: KCNQ2 block baseline	KCNQ2 block
> CCN(CC1CCCO1)C(=O)c1cc(COc2ccc(F)cc2F)on1 (stereo not drawn)
 : 0.9	i
> CC(=Nc1ccccc1)C1=C(O)CCCC1=O
 : 1.1	i
> CCCC12CN3CCN(CC(C3)/C1=N\NC(=O)Nc1ccccc1)C2
 : 0.81	i
> FC(F)(F)c1cc(-c2ccco2)nc(-n2nc(C(F)(F)F)cc2C2CC2)n1
 : 1.8	i
> COCc1cc(C)nc(Oc2ccccc2)c1C#N
 : 1.5	i
> CCCCNC(=O)c1cn(CC)c2ccc(S(=O)(=O)N3CCCCCC3)cc2c1=O
 : 1.7	i
> Cc1ccc(Cn2ccc(NC(=O)CCSc3nc(-c4ccco4)cc(C(F)(F)F)n3)n2)cc1
 : 2.4	i
> CCOC(=O)c1ccc2c(c1)nc(COc1ccc(OC)cc1)n2CC
 : -0.3	i
> CC(C)(C)c1ccc(NC(=O)COC(=O)C2=COCCO2)cc1
 : 0.53	i
> O=C(Nc1nnc(CCN2CCCCC2)s1)c1ccc(Cl)cc1Cl
 : -0.04	i
> Cc1ccc(C(=O)C(C)OC(=O)C2CCN(c3ccc(C(F)(F)F)cn3)CC2)cc1C (stereo not drawn)
 : -4.7	i
> Clc1ccc(-c2cc(CN3CCOCC3)no2)cc1
 : -0.22	i
> N#Cc1cn(-c2ccccc2)nc1-c1ccccc1
 : -1.3	i
> CC(=O)N(C)c1ccc(NC(=O)Nc2ccc(C)c(C)c2)cc1
 : 1.2	i
> CCOc1ccc(CNC(=O)CCCc2cn(C)c3ccccc23)cc1OC
 : 0.75	i
> CCC(C)NC(=O)c1ccc(CS(=O)(=O)Cc2ccc(Cl)cc2)o1 (stereo not drawn)
 : -0.28	i
> CC[n+]1ccc(C)c2cc(S(=O)C(F)(F)F)ccc21 (stereo not drawn)
 : 0.69	i
> O=C(CN(Cc1cccs1)C(=O)CNS(=O)(=O)c1ccccc1)NC1CCCC1
 : -0.46	i
> O=C(CSc1nnc(NC(=O)c2c(F)cccc2F)s1)NCC1CCCO1 (stereo not drawn)
 : -0.7	i
> CCN(CC)c1ccc(/C=C2\SC(N)=NC2=O)cc1
 : 4.1	i
> COc1ccc(/C=C2\N=C(c3ccccc3)NNC2=O)cc1
 : -0.04	i
> O=C(OCc1ccccc1)N1CCOCCOCCN(C(=O)OCc2ccccc2)CCOCCOCC1
 : 2.4	i
> O=C(CCl)N(C1CCCC1)C1CCS(=O)(=O)C1 (stereo not drawn)
 : 1.1	i
> CCC(C)(C)NC(=O)C(Sc1ccccc1)c1ccccc1 (stereo not drawn)
 : 1.4	i
> CCOc1cc(C2/C(=C(/O)c3ccc(OC)cc3)C(=O)C(=O)N2CC2CCCO2)ccc1O (stereo not drawn)
 : 3.4	i
> COc1ccc(N2C(=O)NC(NC(=O)c3cccnc3)(C(F)(F)F)C2=O)cc1 (stereo not drawn)
 : -0.52	i
> COC(=O)C(C)NC(=O)C1CCCN1C(=O)CNC(=O)OCc1ccccc1 (stereo not drawn)
 : 0.88	i
> CCN(CC)C(=O)c1cc2c(=O)n3cccc(C)c3nc2n1C
 : -0.02	i
> CC(C)OC(=O)C(CC(=O)O)NCc1ccccc1 (stereo not drawn)
 : 1.4	i
> CCOC(=O)C1(CCOc2ccccc2)CCN(Cc2cccc(OCCO)c2)CC1
 : 0.35	i
> O=C(CSc1ncn(-c2ccccc2)n1)c1cccs1
 : 0.08	i
> O=C(O)c1nn(Cc2csc(-c3ccccc3)n2)c(=O)c2ccccc12
 : -0.59	i
> CCOc1cc(-c2noc(CCC(=O)NCC3CCCO3)n2)ccc1OC (stereo not drawn)
 : -0.09	i
> Nc1ccc(Cc2nc3c(ccc4ccccc43)[nH]2)cc1
 : -0.92	i
> COc1cc2c(=O)c(-c3ccc(O)cc3)coc2cc1OC1OC(CO)C(O)C(O)C1O (stereo not drawn)
 : 0.77	i
> COc1cccc(C2=CC(c3ccc(N(C)C)cc3)n3ncnc3N2)c1 (stereo not drawn)
 : -0.19	i
> COc1ccc(CSC2=NCCN2)cc1Br
 : 0.15	i
> CCOCC(=O)Nc1cccc(NC(C)=O)c1
 : 1.1	i
> CCCC(=O)NC(c1ccc(OCC)cc1)c1ccc(OC)c(OC)c1 (stereo not drawn)
 : 0.29	i
> COCCN(C(=O)CCC(=O)Nc1ccccn1)C(C(=O)NC1CCCC1)c1ccc(OC)cc1 (stereo not drawn)
 : -0.7	i

3 entries already listed, sorted by the value under KCNQ2 block baseline, high to low:
Below each SMILES: KCNQ2 block baseline	KCNQ2 block
> CCN(CC)C(=O)c1cc2c(=O)n3cccc(C)c3nc2n1C
 : -0.02	i
> CCOc1cc(-c2noc(CCC(=O)NCC3CCCO3)n2)ccc1OC (stereo not drawn)
 : -0.09	i
> O=C(O)c1nn(Cc2csc(-c3ccccc3)n2)c(=O)c2ccccc12
 : -0.59	i

Next part:
Below each SMILES: KCNQ2 block baseline	KCNQ2 block
> CCN(CC)S(=O)(=O)c1cccc(C(=O)N2CCCc3ccccc32)c1
 : 0.71	i
> CC(NC(=O)c1ccco1)C(=O)N1CCN(C(c2ccccc2)c2ccccc2)CC1 (stereo not drawn)
 : 0.63	i
> Cc1ccc(OC(=O)Nc2ccccc2)cc1
 : 2.4	i
> N/C(=N\OC(=O)c1cc(Br)ccc1Cl)c1cccnc1
 : 1.3	i
> COc1ccc(CCN=Cc2ccc(O)cc2)cc1OC
 : -0.04	i
> Cc1ccc([N+](=O)[O-])c(OCCN2CCC(Cc3ccccc3)CC2)c1
 : -0.44	i
> COc1ccc(-c2cc(C)no2)cc1S(=O)(=O)Nc1ccc(NC(C)=O)cc1
 : -0.37	i
> CC(C)CNC(=O)c1ccccc1NC(=O)CN(c1ccccc1)S(=O)(=O)N(C)C
 : -0.2	i
> CC(=O)CC[C@@H](C)O[C@@H]1OC(C)[C@H](O)CC1O (stereo partly drawn)
 : 0.06	i
> Cc1ccc2c(c1)[nH]c1c(=O)n(CCCN3CCOCC3)cnc12
 : -0.2	i
> CN(C)c1ccc(CNn2cnnc2)cc1
 : 1	i
> COc1ccc(/C=N/NC(=O)c2ccc(CSc3nc(C)cc(C)n3)cc2)c(OC)c1OC
 : -1.5	i
> O=C(c1nc2ccc(Cl)cn2c1CN1CCCC1)N1CCc2ccccc2C1
 : 0.59	i
> COc1cc(CN2CCNC(=O)C2CC(=O)N(C)Cc2cccnc2)cc(OC)c1 (stereo not drawn)
 : -0.1	i
> COc1ccccc1-c1cn[nH]c1-c1ccc(OCc2ccccc2F)cc1O
 : -0.98	i
> CCOC(=O)C1CCN(c2nc3ccccc3nc2C(C#N)C(=O)OC(C)COC)CC1 (stereo not drawn)
 : 1.5	i
> CC(C)[C@H](NC(=O)OC(C)(C)C)C(=O)N/N=C/c1cccc2nccnc12
 : 1.7	i
> CCC(C(=O)OC)n1cnc2c(nnn2-c2ccc(F)cc2)c1=O (stereo not drawn)
 : 0.74	i
> Cc1csc(NC(=O)CSc2nnc(-c3ccoc3C)n2Cc2ccco2)n1
 : 0.45	i
> COCC1CCN(C(=O)c2ccc3oc(Cc4ccc(Cl)cc4)nc3c2)C1 (stereo not drawn)
 : -1.7	i
> Cc1ccc(C(=O)N(CC(=O)NC2CCCC2)c2ccc(F)cc2)s1
 : 1.1	i
> COc1ccc(CCNC(=O)C2CCCN(S(=O)(=O)c3cccc4nonc34)C2)cc1OC (stereo not drawn)
 : -0.02	i
> CCC(CC)C(=O)c1c[nH]c(C(=O)NCc2cccs2)c1
 : -1.2	i
> O=C1c2oc3ccc(Cl)cc3c(=O)c2C(c2ccco2)N1CCN1CCOCC1 (stereo not drawn)
 : 0.78	i
> CCOC(=O)c1cnc2ccc(OCC)cc2c1N1CCN(c2ccccc2)CC1
 : -0.59	i
> CCOc1ccc(N2C(=O)CC(SCC(=O)O)C2=O)cc1 (stereo not drawn)
 : -0.41	i
> CSCCC(NC(N)=O)C(=O)N(C)CC(=O)Nc1ccc(C)cc1 (stereo not drawn)
 : -0.95	i
> Cc1ccc(-c2nn(C(C)(C)C)c3ncnc(NS(=O)(=O)c4ccc([N+](=O)[O-])cc4)c23)cc1
 : 0.21	i
> CCN(CC(=O)Nc1ccc(N2CCOCC2)cc1)Cc1nc2ccccc2c(=O)[nH]1
 : -0.66	i
> N#CCC(=O)N/N=C/c1c(-c2ccccc2)n(-c2ccccc2)c2ccccc12
 : -0.5	i
> CC(=O)Sc1nc(-c2ccccc2)[nH]c1S(=O)(=O)c1ccc(C)cc1
 : -0.34*	-11*
> CCOC(=O)CCc1c(C)nc(SCCN2CCCC2)c(C#N)c1C
 : -1.5	i
> CCc1cccc(NC(=O)Cn2cc3c(n2)CCCC3)c1
 : 1.2	i
> O=C(Nc1ccc2c(c1)OCCO2)c1ccccc1F
 : 1.7	i
> CC1(C)C2CCC1(C)C(NC(=O)CCN1CCCCC1)C2 (stereo not drawn)
 : 0.29	i
> COc1ccc(Cl)cc1NC(=O)N1CCN(S(C)(=O)=O)CC1
 : 0.82	i
> CCN(CC(=O)NCc1cccs1)C(=O)c1cccc(S(=O)(=O)Nc2ccc(C)cc2)c1
 : 1.1	i
> COc1cccc(NC(=O)C(Cc2ccccc2)n2cccc2)c1 (stereo not drawn)
 : 1.1	i
> CCOc1ccc(OCCOCCn2ccnc2)cc1
 : -0.87	i
> O=C(/C=C/c1cn(-c2ccccc2)nc1-c1cccs1)NCCN1CCOCC1
 : -0.27	i

Four entries from above, set out differently.
> Nc1ccc(Cc2nc3c(ccc4ccccc43)[nH]2)cc1
  KCNQ2 block baseline: -0.92 | KCNQ2 block: i

> COc1cc2c(=O)c(-c3ccc(O)cc3)coc2cc1OC1OC(CO)C(O)C(O)C1O (stereo not drawn)
  KCNQ2 block baseline: 0.77 | KCNQ2 block: i

> COc1cccc(C2=CC(c3ccc(N(C)C)cc3)n3ncnc3N2)c1 (stereo not drawn)
  KCNQ2 block baseline: -0.19 | KCNQ2 block: i

> COc1ccc(CSC2=NCCN2)cc1Br
  KCNQ2 block baseline: 0.15 | KCNQ2 block: i

The list goes on.
Below each SMILES: KCNQ2 block baseline	KCNQ2 block
> O=S(=O)(c1ccc(Oc2ccc(Cl)cc2)c(S(=O)(=O)N2CCCCC2)c1)N1CCCCC1
 : -0.2*	-7.2*
> Cc1c(C(=O)c2ccc(Cl)c(Cl)c2)cnc2cc3c(cc12)OCO3
 : 2	i
> C[N+](C)(C)CCOP(=O)([O-])OC[C@H](O)CO
 : -1.1	i
> Cc1ccc(N2C(=O)CC(Cc3ccc(Cl)cc3)C2=O)cc1 (stereo not drawn)
 : -0.52	i
> CC(=O)Nc1cccc(C(=O)OCC(=O)NNC(=O)c2ccc([N+](=O)[O-])cc2)c1
 : 1.6	i
> O=C(OCc1nnc(-c2ccc(Br)cc2)o1)c1ccco1
 : -1.8	i
> COc1ccc(C(C[N+](=O)[O-])c2c(C)cc3ccccn23)c(OC)c1 (stereo not drawn)
 : 0.38	i
> COc1ccc(NC(=O)c2oc3ccccc3c2NC(=O)C2CC2)cc1
 : -1.9	i
> C=CCNC(=O)CC(=O)N/N=C/c1cccc(Br)c1
 : 1.6	i
> CCSc1ccccc1C(=O)N1CCN(c2ccccc2F)CC1
 : 1.4	i
> COc1ccc(-c2noc(CN3CCN(c4ccccc4F)CC3)n2)cc1OC
 : -0.84	i
> CC[n+]1c(/C=C(/C)SC)sc2ccccc21
 : -0.83	i
> COc1ccc(OCC(=O)N2CCN(C(=O)c3ccc(F)cc3)CC2)cc1
 : 2.6	i
> COc1nc2ccccc2nc1OC
 : -0.76	i
> CC(C)(Oc1ccc(Cl)cc1)C(=O)N/N=C/c1cn[nH]c1-c1ccccc1
 : -0.79	i
> Cc1cccc(NC(=O)CCN2C(=O)c3ccccc3C2=O)c1
 : 0.9	i
> O=C(Nc1cc(Cl)ccc1O)C1CC(c2ccccc2Cl)=NO1 (stereo not drawn)
 : 1.1	i
> CCOc1ccc(NC(=O)c2cnccn2)cc1
 : -0.31	i
> COc1ccccc1CNC(=O)CCc1nnc2ccc(NCCCN3CCCC3=O)nn12
 : 0.45	i
> c1ccc2c(c1)nc(-c1ccncc1)n2CCNc1nc(CN2CCCCC2)cs1
 : 0.12	i
> Cn1c(=NC(=O)CCl)sc2ccccc21
 : 0.59	i
> COc1ccc(C)cc1-n1c(SCC(=O)NCC2CCCO2)nc2c([nH]c3ccccc32)c1=O (stereo not drawn)
 : -1	i
> Cc1ccccc1NC(=S)NNC(=O)c1ccco1
 : 0.24	i
> O=C(CC1SC(=Nc2ccc(OC(F)F)cc2)N(CCC2=CCCCC2)C1=O)Nc1ccccc1F (stereo not drawn)
 : -2.9	i
> N#CC1=C(N)Oc2cc(O)c(Cl)cc2C1c1ccccc1F (stereo not drawn)
 : 21	i
> COc1cc(CNCCc2ccccc2)cc(Br)c1OCC(=O)Nc1ccccc1C
 : -2.6*	-7.1*
> CCOc1ccc(N(CC(=O)NCc2ccc(F)cc2)C(=O)CCC(=O)Nc2nccs2)cc1
 : -0.72	i
> CCCCN(CC)C(=O)Cn1cnc2ccc(S(=O)(=O)N3CCC(C)CC3)cc2c1=O
 : 0.83	i
> COc1ccc(S(=O)(=O)Nc2c(C)n(C)n(-c3ccccc3)c2=O)cc1
 : -0.59	i
> O=C(NN=C1CCCCCC1)c1ccc2c(c1)OCO2
 : 0.94	i
> CCOC(=O)Cc1nnc(NC(=O)CSc2nnc3c(n2)[nH]c2ccccc23)s1
 : -2.1	i
> COCOc1ccc(/C=C/C(=O)c2c(O)cc(OCOC)cc2OCOC)cc1
 : -0.56	i
> CC(=O)Nc1cccc(C(=O)N/N=C/c2ccc(C)o2)c1
 : -0.53	i
> Cc1occc1C(=O)N1CCN(c2ncccn2)CC1
 : 1.1	i
> Cc1cccc(N(CC(=O)NCC2CCCO2)C(=O)CCC(=O)Nc2cc(C)on2)c1 (stereo not drawn)
 : -0.21	i
> CC(C)N1C[C@@]23C=C[C@@H](O2)C(C(=O)OCc2ccccc2)[C@H]3C1=O (stereo partly drawn)
 : 1.9	i
> N#CCCn1nc(-c2ccc([N+](=O)[O-])cc2)cc1Nc1ccccc1NC(=O)C(F)(F)F
 : -4.5	i
> COc1cc(OC)c(OC)cc1CNC(=O)c1cc(=O)c2ccccc2o1
 : -0.1	i
